MgrA-DNA mod: S. aureus MgrA activity modulators, primary screen, biochemical, S. aureus Newman, fluorescence polarization | MgrA-DNA binding | hit rate 0.13% among 84,000 | inhibition, %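 (about 10 µg/mL by stock and volumes)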;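 active = above 50% in either of two replicates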;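 note: 0% = protein plus DNA without compound and 100% = DNA alone without protein; higher means less MgrA bound to DNA so lower polarization; one replicate is shown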
Sa helicase inh: inhibitors of S. aureus replicative helicase, primary screen, biochemical, fluorescence unwinding readout; hit rate 0.05% among 120,000; purified S. aureus helicase, fluorescence unwinding assay; about half of the hits fall short of the stated cut; inhibition, %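 (tested at about 80 µM)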; replicative DNA helicase (DnaC/DnaB), Staphylococcus aureus;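 active = both duplicates at 50% or more, or one of them with a favoured structure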;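 note: 0% = mean of negative control wells and 100% = mean of positive control wells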
* marks the source's active call; other numbers are inactive results; / = not tested or not shown; & = joins results of further samples. These rows are one share of the data (hit frequency here may not be typical).

SMILES | MgrA-DNA mod | Sa helicase inh
O=C(NCc1ccccc1F)c1cc(=O)c2ccccc2o1 | / | 11
COC(=O)c1ccc(CN(Cc2ccc(C(=O)OC)o2)C(C)(C)C)o1 | -1.2 | 1
CN(Cc1ccccc1)C(=O)c1cccs1 | -1.2 | 11
O=C(c1cccs1)c1no[n+]([O-])c1C(=O)c1cccs1 | / | 1&-17
O=C(O)c1cc(=O)[nH]c2ccc(S(=O)(=O)Nc3ccc(F)cc3)cc12 | / | 5
COc1ccccc1NCC(F)(F)F | / | -12
CCOc1ccccc1NC(=O)CSc1ccc(-c2cccs2)nn1 | -0.1 | 1
CCN(C(=O)c1cc2cc(Br)cc(OC)c2oc1=O)C1CCCCC1 | 0.2 | 10
O=C(Nc1cccc(NC(=O)C2CC3CCCC(C2)C3=O)n1)C1CC2CCCC(C1)C2=O (stereo unspecified) | -0.5 | 11
COc1ccc(-c2noc(CC(=O)N(C)Cc3ccccc3)n2)cc1 | -0.6 | 9
c1ccc(CSCc2cn3ccccc3n2)cc1 | 0.0 | -11
O=S(=O)(Nc1ccc(C(F)(F)F)cn1)c1ccccc1 | -2.1 | /
N#Cc1cccnc1SCCOC(=O)c1cccc(Cl)c1 | -2.4 | /
CCN(CC)S(=O)(=O)c1ccc2oc(C(=O)NCCc3ccc(OC)c(OC)c3)c(C)c2c1 | / | 2
CCCCC(=O)N(Cc1ccc(-c2ccccc2-c2nn[nH]n2)cc1)[C@H](C(=O)O)C(C)C | 3.3 | /
COc1ccc(-c2noc(-c3cc4ccccc4oc3=Nc3ccc(NC(C)=O)cc3)n2)cc1 | -0.2 | -3
CCc1nc2cccnc2n1-c1ccc(C(=O)N2CCCCC2)cc1 | / | 1
NC(=O)C1CCN(C(=O)c2c(F)cccc2Cl)CC1 | 1.4 | 7
O=C(c1cnn(C(=O)CSc2nc3ccccc3o2)c1)c1ccccc1O | / | -15
COC(=O)C1=COC(C)C2CN3CCc4c([nH]c5ccccc45)C3CC12 (stereo unspecified) | / | -62
CC(Oc1ccccc1)C(=O)NCCc1ccc(S(N)(=O)=O)cc1 (stereo unspecified) | -1.7 | 15
C(=N\n1cnnc1)/c1cccs1 | 5.2 | 12
O=C(Nc1nc2ccccc2s1)C1CC(=O)N(c2ccccc2)C1 (stereo unspecified) | -5.0 | 4
COC(=O)C1=C(C)NC(C)=C(C(=O)OC)C1c1ccc(-c2ccsc2C(=O)OC)o1 | 0.5 | /
CCOc1ccc(N(C)C(=O)[C@H]2[C@@H]3C[C@@H]4[C@H]2C(=O)O[C@@H]4C3)cc1 | / | -7
Additional compounds follow:
SMILES | MgrA-DNA mod | Sa helicase inh
COc1ccc(CCNC(=O)c2ccc(C3SCC(=O)N3Cc3ccccc3)cc2)cc1OC (stereo unspecified) | 1.8 | -1
CCn1cnc2c(=O)oc3ccc(S(=O)(=O)NCc4ccccc4)cc3c21 | / | -25
O=C(Cn1c(SCc2cccc(F)c2)nc2ccncc21)NCc1ccco1 | / | 2
O=C(CCCc1ccccc1)NCCc1cn2ccccc2n1 | -0.1 | -10
S=C(Nc1ccc(Cl)cc1)Nc1ccc(Cl)cc1 | 1.5 | /
Clc1ccc(CN2COc3ccc(Cl)cc3C2)cc1 | -2.5 | -1
O=C(NC1CCCc2ccccc21)C1c2ccccc2Oc2ccccc21 (stereo unspecified) | 1.2 | 11
CS(=O)(=O)N1CCC(C(=O)N2CCN(C/C=C/c3ccccc3)CC2)CC1 | -1.8 | 14
CCn1cnc2cc(NCc3ccccn3)ccc21 | -3.0 | 10
Cc1cc(C)nc(/N=C(/N)N2N=CCC2c2ccccc2)n1 (stereo unspecified) | 1.8 | -1
Cc1[nH]c2ccccc2c1C(=O)COC(=O)Cn1c(=O)oc2ccccc21 | / | -13
CN1CCC(OC(=O)c2cc3cc(Br)ccc3oc2=O)CC1 | 3.1 | 11
c1ccc(Nc2nnc(CSc3nc4ccccc4s3)s2)cc1 | / | 9
CSc1ncc2c(n1)-c1ccccc1N(C)S2(=O)=O | / | 12
COc1cc(C(=O)NC(=S)NC(N)=O)cc(OC)c1OC | 1.1 | /
COCCN1C(c2ccccc2)=CC(=C2C(=O)N(C)C(=O)N(C)C2=O)C2=C1CCCC2 | / | -19
CCOC(=O)C1=C(Nc2ccc(Cl)cc2)C(=O)N(C(C)(C)C)C1 | / | -37
Clc1ccc(-c2ncc3ccccn23)c(Cl)c1 | / | 13
N#CC(c1ccccc1)c1cn2cc(Cl)ccc2n1 (stereo unspecified) | 5.8 | 7
O=C(Oc1ccc2c(c1)CCCC2)c1cccs1 | 0.2 | 3
Cc1ccc(CNC(=O)C2CCN(S(=O)(=O)c3c(C)nn(C)c3C)CC2)cc1 | -0.8 | 10
COc1ccc(C2OC(=O)CC2C(=O)NCc2ccc(Cl)cc2)cc1OC (stereo unspecified) | -0.8 | 13
COc1cc(/C=C(\C#N)c2ccc([N+](=O)[O-])cc2)cc(OC)c1OC | -2.5 | /
COc1ccc(C2CCCN2C(=O)Nc2ccc(C)c(C)c2)cc1OC (stereo unspecified) | / | 4
O=C(NNC1=NCCC1)c1c[nH]c2ccccc12 | / | 14

An excerpt from above in order of molecular weight, low to high:
SMILES | MgrA-DNA mod | Sa helicase inh
O=C(NNC1=NCCC1)c1c[nH]c2ccccc12 | / | 14
CCn1cnc2cc(NCc3ccccn3)ccc21 | -3.0 | 10
O=C(Oc1ccc2c(c1)CCCC2)c1cccs1 | 0.2 | 3
Clc1ccc(-c2ncc3ccccn23)c(Cl)c1 | / | 13
N#CC(c1ccccc1)c1cn2cc(Cl)ccc2n1 (stereo unspecified) | 5.8 | 7
CSc1ncc2c(n1)-c1ccccc1N(C)S2(=O)=O | / | 12
Cc1cc(C)nc(/N=C(/N)N2N=CCC2c2ccccc2)n1 (stereo unspecified) | 1.8 | -1
O=C(CCCc1ccccc1)NCCc1cn2ccccc2n1 | -0.1 | -10
CCOC(=O)C1=C(Nc2ccc(Cl)cc2)C(=O)N(C(C)(C)C)C1 | / | -37
COc1cc(/C=C(\C#N)c2ccc([N+](=O)[O-])cc2)cc(OC)c1OC | -2.5 | /
COc1ccc(C2CCCN2C(=O)Nc2ccc(C)c(C)c2)cc1OC (stereo unspecified) | / | 4
O=C(NC1CCCc2ccccc21)C1c2ccccc2Oc2ccccc21 (stereo unspecified) | 1.2 | 11
c1ccc(Nc2nnc(CSc3nc4ccccc4s3)s2)cc1 | / | 9
Cc1[nH]c2ccccc2c1C(=O)COC(=O)Cn1c(=O)oc2ccccc21 | / | -13
CN1CCC(OC(=O)c2cc3cc(Br)ccc3oc2=O)CC1 | 3.1 | 11
CCn1cnc2c(=O)oc3ccc(S(=O)(=O)NCc4ccccc4)cc3c21 | / | -25
COc1ccc(C2OC(=O)CC2C(=O)NCc2ccc(Cl)cc2)cc1OC (stereo unspecified) | -0.8 | 13
CS(=O)(=O)N1CCC(C(=O)N2CCN(C/C=C/c3ccccc3)CC2)CC1 | -1.8 | 14
O=C(Cn1c(SCc2cccc(F)c2)nc2ccncc21)NCc1ccco1 | / | 2
Cc1ccc(CNC(=O)C2CCN(S(=O)(=O)c3c(C)nn(C)c3C)CC2)cc1 | -0.8 | 10
COCCN1C(c2ccccc2)=CC(=C2C(=O)N(C)C(=O)N(C)C2=O)C2=C1CCCC2 | / | -19
COc1ccc(CCNC(=O)c2ccc(C3SCC(=O)N3Cc3ccccc3)cc2)cc1OC (stereo unspecified) | 1.8 | -1

(list continues)
SMILES | MgrA-DNA mod | Sa helicase inh
COc1ccccc1C1C2=C(CC(C)(C)CC2=O)Nc2nc3ccccc3n21 (stereo unspecified) | / | 16
O=S(=O)(c1ccc(Cl)cc1)N1CCCN(c2ncccc2C(F)(F)F)CC1 | -1.5 | /
COC(=O)c1ccc(CSc2nnc(-c3ccncc3)n2Cc2ccccc2)o1 | / | -9
COc1cccc(CN2C(=O)c3ccccc3C2C(=O)NCC2CCCO2)c1 (stereo unspecified) | / | -31
O=c1[nH]c2c(s1)C=Nc1cc3ccccc3cc1N2 | 37 | -28
COC(=O)/C=C1\SC(C)C(=O)N1CC(=O)Nc1ccccc1C(F)(F)F (stereo unspecified) | / | -24
O=C(c1cccs1)N1N=C(c2ccccc2)CC1c1ccc(Cl)cc1 (stereo unspecified) | 0.5 | /
O=C(CSCc1ccccc1)NC1CC2CCC1C2 (stereo unspecified) | 0.4 | 13
COC(=O)c1cc(S(=O)(=O)N2CCCCC2)c[nH]1 | -1.5 | -4
O=S(=O)(Nc1cccc2cccnc12)c1cc(Cl)c(Cl)cc1Cl | 1.8 | /
O=c1[nH]snc1N1CCCCC1 | 1.4 | 11
C[C@H](NS(=O)(=O)c1cccc2nsnc12)C(=O)Nc1ccc2c(c1)CCC2 | / | 10
CCOC(=O)c1c(C)c(C(=O)Nc2ccc(C)cc2)c(C)n1C | / | -16
Cc1[nH]c2ccccc2c1CCNC(=O)NC(=O)c1ccc(C(F)(F)F)cc1 | 1.2 | -3
CCCCOn1c(C)c(C(=O)OCC)c2c3no[n+]([O-])c3ccc21 | / | -11
Cc1cc(C)c2c(N)c(C(=O)N3CCC(Cc4ccccc4)CC3)sc2n1 | -1.9 | 5
NC(=NC(=O)c1ccc(OCC(F)(F)F)nc1)c1ccc(Cl)cc1 | / | -25
CCOC(=O)CSc1nc2cc(Cl)ccc2n1C(C)C | 0.6 | /
S=c1[nH]c(=S)c2cnc(N3CCN(c4ccccc4)CC3)nc2[nH]1 | / | 1
O=C(CSCc1ccccc1)NC1Cc2ccccc2C1 | -0.1 | /
CSc1nc2nc3c(cc2c(=O)[nH]1)C(O)Oc1ccc(C)cc1-3 (stereo unspecified) | / | -4
COc1ccc(CN(C)C(C)C(=O)Nc2ccc3c(c2)OCCO3)c(OC)c1 (stereo unspecified) | / | -5
COc1cccc2cc(C(=O)N3CCN(c4ccccc4)CC3)c(=O)oc12 | / | -24
Cc1oc(-c2cccc(Cl)c2)nc1CN1CCC(C(=O)NCCC2=CCCCC2)CC1 | / | 10
CCOc1ccc(OCc2ccc(C(=O)NC(C)C)o2)cc1 | -2.4 | 8
Next structures
SMILES | MgrA-DNA mod | Sa helicase inh
Cc1nnc(SCCn2c(C)csc2=O)n1C | / | 9
CCOC(=O)N1CCN(CC(=O)c2ccc3c(c2)CCN3)CC1 | / | 14
N#Cc1ccc(-c2ccc(Cl)cc2)nc1Cl | 1.8 | /
O=C(Cn1c(=O)oc2ccccc21)Oc1ccc2c(c1)OCO2 | / | -37
Cn1c(=O)c2cc(NC(=O)c3ccccc3F)c(=O)oc2n(C)c1=O | / | -1
FC(F)n1c(=S)n(C(F)F)c2ccccc21 | / | 0
COc1ccc(N/C(=N/c2nc(C)cc(=O)[nH]2)NC(=O)c2cccc(Cl)c2)cc1 | / | -35
Cc1ccc2nc(SCC(=O)N3CCCc4ccccc43)nc(=O)n2c1 | / | 1
O=C(CSc1nnc(-c2ccccc2)o1)c1ccccc1 | -2.1 | 20
COc1ccc(C(=O)Nc2ccccc2)cc1 | 0.5 | -8
CCOc1ccc2oc(C(=O)N3CCCCC3C(N)=O)c(C)c2c1 (stereo unspecified) | / | -12
Clc1ccc(C2C3CC=CC3c3cc(Br)cc4c3N2CC2CC=CC42)cc1 (stereo unspecified) | 4.9 | /
Cc1ccc(S(=O)(=O)NC(=O)Nc2cc(C)on2)cc1 | -1.0 | /
COCCNS(=O)(=O)c1cccc(C(=O)Nc2ccccc2)c1 | -0.7 | 23
Cc1noc(C)c1C(=O)N1CCSCC1 | -4.3 | /
Cc1ccc(NC(=S)N2CCCc3ccccc32)c(C)c1 | 2.4 | /
O=c1ccc2cc3c([nH]c4ccc(Br)cc43)oc-2c1O | 1.2 | -92
c1ccc2oc(Cc3nc4ccccc4s3)nc2c1 | / | -17
Cc1[nH]nc2oc(=O)c(Cc3c(F)cccc3Cl)c(C)c12 | -1.1 | /
O=c1c2ccccc2c(/C=N/c2ncn[nH]2)c(O)n1-c1cccc(C(F)(F)F)c1 | / | 6
Cc1cccc(C)c1OCC(O)CN1CCN(c2ccccc2)CC1 (stereo unspecified) | / | -6
CC(C)(C)NC(=O)Cc1ccc(Br)cc1 | -7.4 | 10
O=C(NCc1cccc(C(F)(F)F)c1)c1cccs1 | 4.2 | 10
N/C(=N/OC(=O)Nc1ccccc1)C1COc2ccccc2O1 (stereo unspecified) | / | 28
CCc1ccccc1NC(=O)Cn1cccc1C1=NC(c2ccccc2)CO1 (stereo unspecified) | / | 6
Next results
SMILES | MgrA-DNA mod | Sa helicase inh
NNc1nnc2c(n1)[nH]c1ccc(F)cc12 | / | 32
Clc1ccc(-c2noc(CSc3ccccn3)n2)cc1 | -0.6 | /
OCCSc1ccc(Cl)cn1 | -3.0 | /
CCOc1ccc(OCCn2c(SCC(=O)O)nc3c(N)ncnc32)cc1 | / | 20
CSc1nnc(-c2cccs2)o1 | -1.5 | /
CC(C)c1cc(C(F)(F)F)n2nc(C(=O)O)cc2n1 | -8.3 | 7
CN(CC(=O)NC1CCCCCC1)S(=O)(=O)c1ccc2c(c1)n(C)c(=O)c(=O)n2C | / | 0
COc1ccc(C2(C(=O)NC(C)(C)C)CCCC2)cc1 | 6.0 | 17
COc1cc2c(cc1NC(=O)CC(C)(C)C)oc1ccccc12 | 2.4 | 3
COc1ccc(CNC(=O)CCSCc2ccc(C)cc2)cc1 | 1.6 | 3
COc1ccc(-n2nc3ccc(NC(=O)c4ccc5c(c4)OCCO5)cc3n2)cc1 | 2.1 | /
COc1ccc(C(=O)NCc2nnc(SCC(=O)Nc3ccc(C)cc3C)o2)cc1OC | / | 37
COC(=O)c1ccc(OCC(F)(F)F)nc1 | -2.0 | /
CCc1cccc(CC)c1N(COC)C(=O)Cn1c(Cc2ccccc2)nc2ccccc21 | 0.0 | 4
Cn1cccc1C1=NC(C)(C)CO1 | / | 11
CCOC(=O)c1c(C)c(C#N)c(N(C(C)=O)C(C)=O)n1-c1ccc(C)cc1 | 8.9 | /
CC/S(=N\S(=O)(=O)c1ccc(C)cc1)c1ccccc1 (stereo unspecified) | / | -29
CC(c1ccccc1)n1c(SCC(=O)Nc2ccccc2)n[nH]c1=O (stereo unspecified) | -1.1 | /
COCCNC(=O)c1cc2ccccc2oc1=O | / | 0

Source: PubChem
